HPGD inh = qHTS Assay for Inhibitors of HPGD (15-Hydroxyprostaglandin Dehydrogenase) | Potency, µM, inactives show at the top dose activity change, negative = inhibition, actives largely listed as inhibitors | AID 894, 2007 | 150,000 tested, 4.3% active | 15-hydroxyprostaglandin dehydrogenase [NAD(+)] (Homo sapiens), P15428 | purified HPGD, NADH fluorescence kinetic, PGE2 substrate; active = well fitted inhibition curve with a large enough effect (not every such curve was filed as active); inconclusive = small, poorly fitted or top-dose-only effect, or another doubt; inactive = no such curve, though single readings can be large or run the other way;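 note: top concentration of the series not given in the record; plate controls included wells without enzyme; inactives centre near -10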
Target sequence (P15428 whole entry, looked up): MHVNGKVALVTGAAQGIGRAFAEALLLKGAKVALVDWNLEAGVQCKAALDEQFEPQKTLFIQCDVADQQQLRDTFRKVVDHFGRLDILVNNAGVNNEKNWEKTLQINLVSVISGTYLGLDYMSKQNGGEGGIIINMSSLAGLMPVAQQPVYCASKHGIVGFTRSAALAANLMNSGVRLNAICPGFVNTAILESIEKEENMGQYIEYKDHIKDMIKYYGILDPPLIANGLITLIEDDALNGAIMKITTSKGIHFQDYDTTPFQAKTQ
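20 nM HPGD preincubated 15 min at room temperature with compound in 50 mM Tris-HCl pH 8, 0.01% Tween 20. Started with 1 mM NAD+ and 30 uM prostaglandin E2; NADH fluorescence (360/450 nm) read 5 times over 30-s intervals, last minus first.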
* marks the source's active call; other numbers are inactive results; ? = inconclusive; & = joins results of further samples. % is set by controls: 0 for no effect and ±100 for the full control effect; potency is the fitted concentration of half-maximal effect.

HPGD inh	SMILES
-7.4%	CC(=Nc1ccccc1C)C1=C(O)CSC1=O
-4.8%	CCCn1cnc2c(=O)oc3ccccc3c21
-5.4%	CC(C)CCC(O)(CCC(C)C)C(=O)NNc1ccccc1
-12.1%	Cc1cnnc2c1-c1nonc1CC2
12.6µM*	O=C(Cc1ccc(-c2ccccc2)cc1)NC(c1ccccc1)c1ccccc1
-7.0%	Cc1cc(C)c(S(=O)(=O)N(CC(=O)O)C2CCCCC2)c(C)c1
-1.2%&-6.9%	COCCNC(=O)[C@@]1(Cc2ccccc2)C=C[C@@H](C)N1C(C)=O
-4.8%	Cc1cc(S(=O)(=O)N2CCN=C2c2ccccc2)ccc1F
3.6%	Cc1ccc(NC(=O)COC(=O)CN2C(=O)C3CCCCC3C2=O)cc1S(=O)(=O)N1CCOCC1 (configuration not stated)
?	C=CCn1c(SCC(=O)c2cccs2)nc2sc(C)cc2c1=O
-9.1%	Cc1nn(CC(=O)Nc2ccc(Cl)c(S(=O)(=O)N(C)C)c2)c(C)c1[N+](=O)[O-]
-5.7%	Cc1cccc(C2CN(C)CCc3c2cc(O)c(O)c3Cl)c1 (configuration not stated)
-19.2%	CCCC1(C(=O)OC)C=C2C(=C(c3ccccc3)C(=O)C2C)CN1 (configuration not stated)
-6.0%	COc1ccccc1-c1nnc(NC(=O)OCC(C)C)s1
-9.6%	Cc1cc(N2CCN(C)CC2)nc2ccc(NC(=O)c3ccc4c(c3)OCO4)cc12
-5.1%	CCN(CC)c1ccc(/C=C/c2nc3ccccc3s2)cc1
-5.4%	Cc1ccc(N(CC(O)CN2CCCC2)S(=O)(=O)c2ccc(C)cc2)cc1 (configuration not stated)
-2.6%	COc1ccc(-n2c(SCC(N)=O)nnc2-c2ccccc2F)cc1
-14.2%	CN1CCN(c2ncc3nc(-c4ccccc4)c(=O)n(Cc4ccc(F)cc4)c3n2)CC1
-0.3%	CSc1ccccc1-n1nnnc1SCC(=O)Nc1ccccc1C
-17.6%	COc1ccc(NC(=O)Nc2cccc(C)n2)cc1
-5.7%	Cc1cc(C)c(OC2(c3ccccc3)OC(=O)c3ccccc32)c(C)c1 (configuration not stated)
-8.2%	COc1cc2c(cc1OC)CN(S(=O)(=O)c1ccc3c(c1)OCCO3)CC2
-13.5%	COc1cccc(-c2csc(N3CCN(CC(=O)Nc4ccc5c(c4)OCO5)CC3)n2)c1
-8.5%	Cc1cc(C)nc(N(C#N)CC(=O)Nc2ccccc2)n1
-7.3%	CC(=O)N1CCN(C(=S)NCc2ccccc2)CC1
1.3%	Cc1ccc(C(C(=O)NC2CCCCC2)N(Cc2ccco2)C(=O)Cn2cnc3ccccc32)cc1 (configuration not stated)
-11.6%	O=[N+]([O-])c1cccc(-c2nnc(-c3ccc4c(c3)OCO4)o2)c1
4.7%	COc1cccc(C(=O)Nc2cccc(OCC(=O)O)c2)c1
-6.7%	O=C(CSc1nnnn1-c1ccccc1)Nc1ncc(Cc2cc(Cl)ccc2Cl)s1
0.9%	CCC(=O)N1N=C2CC(C)(C)OCC2C1c1ccccc1 (configuration not stated)
-12.4%	CN1CCN(c2nc(-c3ccccn3)nc3ccccc23)CC1
-25.1%	CN(C)c1ccc(/C=N/N=C2/NC(=O)/C(=C/c3ccc([N+](=O)[O-])cc3)S2)cc1
-13.6%	CCCn1c(C)cc(C(=O)CSc2nc3ccccc3c(=O)n2Cc2ccco2)c1C
-4.3%	CN1CCN(Cc2cccc(Oc3ccccc3)c2)CC1
?	O=C(Nc1cccc(-c2cn3cccnc3n2)c1)c1ccc(Br)o1
-13.3%	O=C(NCc1ccco1)C1c2ccccc2Oc2ccccc21
-4.8%	COC(=O)C1=C(C(=O)OC)[C@@H]2N(C)c3ccccc3[C@@]23C[C@@H](CO)N=C3N1
-9.9%	Cc1ccc(N2C(=O)/C(=C/c3ccco3)SC2=S)cc1
-4.9%	O=C(c1ccncc1)N1CCC2(CC1)CN(c1ccccc1)C2
-2.0%	COc1ccccc1N(C)S(=O)(=O)c1ccc(C(=O)OCC(=O)NCCC2=CCCCC2)cc1
?	CCC(=O)NC(=S)Nc1ccc(NC(=O)c2ccco2)c(OC)c1
-9.4%	O=[N+]([O-])c1ccc2nc(-c3ccccc3)n(OCc3ccc(Cl)cc3)c2c1
-3.5%	CCS(=O)(=O)c1nc2ccccc2n1CC(=O)N1CCCCC1
-5.5%	COc1ccc(/C=N/Nc2nccnc2Cl)cc1
-4.3%	O=C(Nc1cccc(Cl)c1)c1ccc(NCCCN2CCOCC2)c([N+](=O)[O-])c1
-5.9%	CC[C@H](C(=O)c1cccs1)C(O)(C(F)(F)F)C(F)(F)F
-5.2%	COc1ccc2[nH]cc(C(=O)CN3CCN(C(=O)c4ccco4)CC3)c2c1
-20.1%	Cc1cccc(N2C(=O)CC(N3CCN(c4cccc(C(F)(F)F)c4)CC3)C2=O)c1 (configuration not stated)
-9.4%	CCNC(=O)CC1C(=O)N(c2ccc(F)cc2)C(=O)N1CCc1ccc(OC)cc1 (configuration not stated)
2.3%	Cc1cc(NC(=O)CCC(=O)N(CC(=O)NC2CCCC2)c2ccc3c(c2)OCCO3)no1
-26.5%	Cc1c([N+](=O)[O-])cc(C(=O)Oc2ccc(Br)cc2C(=S)N2CCCCC2)cc1[N+](=O)[O-]
-3.5%	O=C(c1ccccc1NS(=O)(=O)c1ccc(Br)s1)N1CCOCC1
-1.4%	CCc1sc(C(=O)Nc2cccc(C(C)=O)c2)cc1C
-26.8%	Cc1ccc(-c2nnc(N3CCCCC3)c3ccccc23)cc1S(=O)(=O)N(C)C
15.8µM*	S=C(NCc1ccccc1)NCc1ccc2c(c1)OCO2

Continued.
HPGD inh	SMILES
-20.7%	O=c1[nH]c2ccc(S(=O)(=O)N3CCN(C4CCCCC4)CC3)cc2[nH]c1=O
?	CS(=O)(=O)N1CCC2(CC1)CN(c1ncccn1)C2
?	Cc1cc(C(C)(C)C)oc1C(=O)N(CC(=O)NC1CCCC1)Cc1ccc(Cl)cc1
-16.4%	O=C(NCc1ccc2c(c1)OCO2)c1nn(-c2ccccc2)c(=O)c2ccccc12
9.5%	O=C(Nc1ccc(N2CCN(C(=O)c3ccccc3)CC2)cc1)c1cc2ccccc2o1
-20.2%	O=C(CSc1nc(-c2ccc(F)cc2)cs1)N1CCOCC1
-9.9%	O=C(Nc1ccccc1)C1CC(=O)N(C2CCCCC2)C1 (configuration not stated)
-19.9%	NC(=O)c1cc(-c2ccccc2)nc(Oc2ccccc2)n1
-15.5%	Cc1ccc(CNC(=O)CCNC(=O)c2ccc(Br)o2)cc1
-7.9%	O=C(CCN1C(=O)C2CCCCC2C1=O)NNC(=O)c1cccc(Cl)c1 (configuration not stated)
-17.0%	CCCOC(=O)C1=C(C)NC2=C(C(=O)CCC2)C1c1cccs1 (configuration not stated)
?	Cc1cc2cc(CNC(=O)c3cccc([N+](=O)[O-])c3)ccc2n1C
-10.1%	Cc1nc2ncnn2c(C)c1CCC(=O)NCCc1ccccc1
-5.2%	O=C(CCS(=O)(=O)c1cc(Br)cc2c1N(C(=O)C1CC1)CC2)NCC1CCCO1 (configuration not stated)
-15.9%	CCNc1nc(N)nc(Oc2ccc(OCC)nn2)n1
?	N#Cc1c(Nc2ccc(F)cc2)sc(C(=O)c2ccc(F)cc2)c1N

Reprinted at random: 7 entries already listed
HPGD inh	SMILES
?	Cc1cc2cc(CNC(=O)c3cccc([N+](=O)[O-])c3)ccc2n1C
-10.1%	Cc1nc2ncnn2c(C)c1CCC(=O)NCCc1ccccc1
-7.9%	O=C(CCN1C(=O)C2CCCCC2C1=O)NNC(=O)c1cccc(Cl)c1 (configuration not stated)
-15.9%	CCNc1nc(N)nc(Oc2ccc(OCC)nn2)n1
?	N#Cc1c(Nc2ccc(F)cc2)sc(C(=O)c2ccc(F)cc2)c1N
-15.5%	Cc1ccc(CNC(=O)CCNC(=O)c2ccc(Br)o2)cc1
-17.0%	CCCOC(=O)C1=C(C)NC2=C(C(=O)CCC2)C1c1cccs1 (configuration not stated)

Next entries.
HPGD inh	SMILES
-13.0%	COc1ccc(NC(=O)C2CCN(C(=O)c3ccccc3)CC2)cc1OC
-4.7%	Cc1noc(C)c1C(=O)N1CCC[C@@]2(CCN(Cc3ccc(C#N)cc3)C2)C1
5.5%	OCCN(Cc1ccccc1)Cc1ccccc1Cl
14.1µM*	O=C(c1ccc(CNS(=O)(=O)c2cccc(C(F)(F)F)c2)cc1)N1CCOCC1
?	COC(=O)c1cc2c(s1)-c1ccccc1CC2
2.5%	OC1C2CN3CCN(C2)CC1(Cc1ccccc1)C3 (configuration not stated)
-9.4%	Cc1cc(C)c(S(=O)(=O)N2CCOC2CNC(=O)C(=O)NCCc2c[nH]c3ccccc23)c(C)c1 (configuration not stated)
15.8µM*	CCc1cc(-c2n[nH]c(=S)n2C(C)c2ccccc2)cs1 (configuration not stated)
-9.3%	CC1(C)C([N+](=O)[O-])C(c2ccc(Cl)cc2)NC(c2ccc(Cl)cc2)C1[N+](=O)[O-] (configuration not stated)
-2.6%	O=C(Nc1ccc(Cl)cc1)NC1CCCCC1
-3.8%	CCOC(=O)c1c(C)n(C)c2ccc(OCCN(C)C)cc12
-1.9%	CC1CCC(NC(=O)C2c3ccccc3C(=O)N2Cc2cccs2)CC1 (configuration not stated)
-15.5%	CCCCC(CC)CNC(=O)CN(C)S(=O)(=O)c1cccc2nsnc12 (configuration not stated)
10µM*	COc1cccc(Nc2n[nH]c(=S)s2)c1
-14.5%	O=C(CN1C(=O)c2ccccc2S1(=O)=O)N1CCN(Cc2ccc3c(c2)OCO3)CC1
-7.7%	CCOC(=O)C(NCCc1ccccc1F)(NC(C)=O)C(F)(F)F (configuration not stated)
-8.5%	CCn1c(SCC(=O)NC(C)(C)C)nc(O)cc1=O
1.4%	COc1ccc(N2CCN(C(CNC(=O)c3cccc(Cl)c3)c3cccnc3)CC2)cc1 (configuration not stated)
?	C=CCOc1ccc(C2OC34CCCCC3C(C#N)(C#N)C2(C#N)C(=N)O4)cc1 (configuration not stated)
-10.2%	COc1cc(C(=O)NCC(C)C)cc(OC)c1OC
-10.5%	Cc1nn(Cc2ccccc2)c(Cl)c1C(=O)NCCc1ccc(Cl)cc1
-10.4%	O=C(CO/N=C/c1ccccc1OC(F)F)N1CCc2ccccc21
-18.2%	N#CC(C#N)C(c1ccsc1)c1c(-c2ccccc2)[nH][nH]c1=O (configuration not stated)
0.5%	c1ccc2c(c1)CCCN2Cc1nnnn1C1CCCC1
-2.8%	COc1ccc(OC)c(NC(=O)[C@H]2CC=CC[C@H]2C(=O)O)c1
-1.2%	COc1ccc(Nc2nc(S(=O)(=O)c3ccc(C)cc3)c(Cl)s2)cc1
-5.5%	CSCCC(NC(=O)c1ccc([N+](=O)[O-])cc1Cl)C(=O)OCC(=O)NCCCc1ccccc1 (configuration not stated)
-7.3%	CSCCC(NC(=O)c1ccc([N+](=O)[O-])cc1Cl)C(=O)OCC(=O)NCC(F)(F)F (configuration not stated)
-0.9%	C[C@]12C[C@@](C)(C=C1/C=C/c1ccc(C(F)(F)F)cc1)C(=O)C[C@H]2c1ccc(C(F)(F)F)cc1
-1.6%	CCOC(OCC)P(=O)(O)CCCNCc1ccc(Cl)c(Cl)c1
-11.6%	Cc1ccc(NC(=S)NNC(=O)c2nn(C)cc2Cl)cc1
-12.9%	COc1ccc(-c2nc(NC(=O)Cn3c(=O)oc4ccccc43)sc2C)cc1
-9.5%	Cc1ccc(C)c(OCc2nc(-c3cccnc3)no2)c1
2.0%	CCNC(=O)N1CCNC(=O)C1CC(=O)OC (configuration not stated)
?	O=c1cc(-c2ccc(O)cc2O)oc2ccccc12
-29.9%	CCn1c2ccccc2c2cnc(N=CN(C)C)c(C#N)c21
-2.9%	COc1ccc(NC(=O)N2CCOCC2)cc1OC
-20.5%	CCCCn1c(CN2CCN(c3cccc(Cl)c3)CC2)nc2c1c(=O)n(C)c(=O)n2C
-5.8%	O=c1cc(N2CCOCC2)[nH]c(=O)n1-c1ccc(Cl)cc1
-7.8%	C#CCn1c(=NC(=O)c2ccc(Br)s2)sc2cc(NC(C)=O)ccc21
-12.0%	COc1cccc(/C=N/NC(=O)c2[nH]c(C)c(C(=O)N/N=C/c3cccc(OC)c3O)c2C)c1O
-8.5%	Cc1cc(C)n2nc(CC(=O)NC3CCCCCCC3)nc2n1
-2.5%	COc1cccc(OC)c1C(=O)Nc1cc(Cl)ccc1N1CCOCC1
?	Cc1c(CNC(=O)c2nn3c(c2Cl)NC(c2ccccc2)CC3C(F)(F)F)cnn1C (configuration not stated)
-23.8%	Cc1ccc(C)c(Cn2c(C(=O)OC(C)C)cc3c2ccn3C)c1
?	O=C1S/C(=C\c2ccc(N3CCOCC3)o2)C(=O)N1Cc1ccc(F)cc1
?	CCCOC(=O)c1ccc(NC(=O)c2cc(Cl)ccc2OC)cc1
17.8µM*	Cc1cc(Nc2ccccc2)n(-c2ccccc2)n1
-2.6%	COc1ccccc1C(=O)N1CCCN(C(=O)c2ccccc2OC)CC1
-3.5%	NC(=O)c1ccccc1NC(=O)CCCN1C(=O)CCC1=O
-10.6%	CCOc1ccc(NC(=O)CSc2nnc(-c3ccccc3)n2N)cc1
-21.2%	COc1ccc(/C=N/N=C/c2ccc(OC)c(O)c2)cc1O
?	Cc1ccc(-c2nc3ccccc3n2C)o1
-12.9%	NC(=O)c1nsnc1-c1ccccc1O
-9.5%	O=C(CS(=O)(=O)Cc1ccccc1)Nc1nc2c(s1)CCCC2
-4.3%	OC[C@@H]1O[C@@H](N2CCN([C@@H]3O[C@@H](CO)[C@@H](O)[C@H](O)[C@H]3O)CC2)[C@@H](O)[C@H](O)[C@H]1O

Not all compounds are listed, so the mix of outcomes need not match the whole.
